# 2A Renilla – lowers the Renilla signal of an FMDV 2A StopGo reporter; HEK cells with a luciferase reporter of 2A StopGo recoding; Potency, µM (highest dose often 57.5 µM), for the others: top-dose signal change, negative = less light; 0.32% of 120,000 active; active means well fitted falling curve with a large enough effect; inconclusive means small, poorly fitted or top-dose-only effect; inactive means no such curve, though single readings can be large or run the other way; note: nearly all actives have a fitted effect of over 55% in size; overnight with compound
# StopGo FLuc – lowers the firefly signal of an FMDV 2A StopGo reporter | AID 1745856 | 0.23% of 120,000 active | HEK cells with a luciferase reporter of 2A StopGo recoding | Potency, µM (series often up to 57.5 µM), without a hit: top-dose signal change, negative = less light; active = well fitted falling curve with a large enough effect; inconclusive = small, poorly fitted or top-dose-only effect; inactive = no such curve, though single readings can be large or run the other way; note: nearly all actives have a fitted effect of over 60% in size; overnight with compound
# * = called active by the depositor; ? = inconclusive; & = joins results of further samples; [ ] = remark or other dose. % is set by controls: 0 for no effect and ±100 for the full control effect; potency is the fitted concentration of half-maximal effect. A portion of the library, so the mix of outcomes need not match the whole.
SMILES,2A Renilla,StopGo FLuc
Cc1ccc(NC(=O)CN2C(=O)CCSc3ccc(S(=O)(=O)N4CCCC4)cc32)cc1,-6.1%,-11.1%
CCc1ccc(C(=O)C2CCCCC2)cc1,14.9%,0.0%
Cc1ccc(C(=O)NCCn2nc(-c3ccc(Cl)cc3)ccc2=O)cc1C,-20.3%,-15.9%
CCn1nc(C(=O)OCC(=O)N(C)c2ccccc2)c2ccccc2c1=O,-3.5%,-3.8%
COc1ccc(CCCc2nnc(SCC(=O)Nc3cc(C)ccc3C)o2)cc1,0.0%&-11.0%,0.0%&-24.3%
O=[N+]([O-])c1ccc(/C=N/Nc2ccc(C(F)(F)F)cn2)cc1,20.2%,0.0%
CC(C)C(=O)NC(=S)Nc1cccc(Cl)c1,3.7%,74.4%[activator]
COC(=O)c1cn(CC(=O)N2CCC2)c2ccccc12,-8.6%,-2.0%
CC(C)n1nc(C(=O)Nc2ccc3ccccc3n2)c2ccccc2c1=O,-0.3%,121.4%[activator]
CCOc1ccc(-c2csc(-c3c(N)c(C(=O)c4ccc5c(c4)OCO5)n4ccccc34)n2)cc1,-1.3%,18.7%
Nc1nccnc1C(=O)NCC#Cc1ccccc1,2.9%,73.9%[activator]
CCNC(=O)CCn1nc(-c2ccccc2)c2ccccc2c1=O,6.6%,6.5%
Cn1c(C=C(C#N)C#N)ccc1-c1ccc(Br)cc1,1.3%,0.0%
O=S(=O)(Nc1ccc(-c2ccc(N3CCCCCC3)nn2)cc1)c1ccc(Cl)s1,90.4%[activator],146.7%[activator]
CCCCC(=O)Nc1ccc2nc(SCC(=O)N3CCOCC3)sc2c1,33.8%[activator],20.8%
Cn1c(=O)n(C)c2cc(S(=O)(=O)c3ccc(F)cc3)c(NC(=O)Cc3ccccc3Cl)cc21,3.6%,-4.2%
CCCCCSc1nc2c(c(=O)n(C)c(=O)n2C)n1C/C=C/c1ccccc1,-6.4%,-0.5%
CCCCCCCn1c(CN2CCN(c3ccccc3)CC2)nc2c1c(=O)n(C)c(=O)n2C,-4.6%,1.9%
Cc1cc(N2CCOCC2)nc(Nc2ccc(NC(=O)c3ccccc3)cc2)n1,-17.9%,-21.0%
O=c1oc(-c2ccc(Br)cc2)nc2ccccc12,12.3%,169.8%[activator]
Cc1ccc(NC(=O)CCc2ncc(-c3c(F)cccc3F)o2)nc1,51.7%[activator],3.4%
Nc1nc2ccc([N+](=O)[O-])cc2s1,23.4%[114 µM],48.0%[activator][115 µM]
COc1ccccc1-n1cnnc1SC(C)C(=O)c1ccc2c(c1)CCC2 (stereo not given),83.7%[activator],8.0%
CC(=O)NC(C(=O)NC(C)c1cccc(Cl)c1)C(C)C (stereo not given),-0.2%,2.0%
CN1CCN(c2ccc(NC(=O)CN(Cc3ccccc3)S(=O)(=O)c3ccccc3)cc2)CC1,-11.0%,-19.3%

# Two of the compounds above, with two lines to a compound.
# Sequence of screens – 2A Renilla | StopGo FLuc
Cc1cc(N2CCOCC2)nc(Nc2ccc(NC(=O)c3ccccc3)cc2)n1
  -17.9% | -21.0%
Nc1nccnc1C(=O)NCC#Cc1ccccc1
  2.9% | 73.9%[activator]

# Back to the main list; the 4 compounds before the break are reprinted first.
SMILES,2A Renilla,StopGo FLuc
Nc1nc2ccc([N+](=O)[O-])cc2s1,23.4%[114 µM],48.0%[activator][115 µM]
COc1ccccc1-n1cnnc1SC(C)C(=O)c1ccc2c(c1)CCC2 (stereo not given),83.7%[activator],8.0%
CC(=O)NC(C(=O)NC(C)c1cccc(Cl)c1)C(C)C (stereo not given),-0.2%,2.0%
CN1CCN(c2ccc(NC(=O)CN(Cc3ccccc3)S(=O)(=O)c3ccccc3)cc2)CC1,-11.0%,-19.3%
Clc1ccc(-c2nnn3c2nc(NCc2ccc4c(c2)OCO4)c2ccccc23)cc1,-9.0%,76.9%[activator]
CCCn1c2ccccc2c2cnn(CC(=O)NCC3CCN(Cc4ccc(C)cc4)CC3)c(=O)c21,-19.7%,-15.2%
CCCCc1noc(CN2CCC(NC(=O)c3cnn(C)c3)CC2)n1,0.6%,0.0%
CCN(CCCNC(=O)c1cc2cc3ccc(OC)cc3nc2s1)c1cccc(C)c1,6.3%,14.7%
COc1ccc2c(c1OC)C(=O)OC2Nc1nc(-c2ccc(Br)cc2)cs1 (stereo not given),-9.4%,194.6%[activator]
N#C/C(=C/c1ccccc1OC(F)F)c1nc2ccccc2s1,83.6%[activator],102.8%[activator]
COCCCNC(=O)c1cc(-c2ccccc2)nc2ccc(C)cc12,20.0%,25.7%
CCCC/C(=N/NC(=S)Nc1cccc(C)c1)c1ccccc1,-0.2%,5.4%
CCc1cccc(C)c1NC(=O)c1nc2ccccc2nc1N1CCCCC1,-4.4%,-14.2%
Cc1ccc(-c2nc(CN3C(=O)CN=C(c4ccccc4)c4ccccc43)c(C)o2)cc1,-7.8%,-12.1%
COc1ccc(/C=C/c2nn3c(-c4ccc(Cl)cc4)nnc3s2)cc1,20.4%,113.0%[activator]
CCCNC(=O)CCNS(=O)(=O)c1ccc2c(c1)c(=O)n(C)c(=O)n2C,-5.0%,-13.3%
Cc1ccc(C(C)C)c(OCc2ccc(C(=O)Nc3ccc(S(N)(=O)=O)cc3C)o2)c1,-19.2%,-20.6%
Cn1c(=O)[nH]c(=O)c2c1nc(N1CCCCCC1)n2Cc1ccccc1F,-1.1%,-3.0%
COC(=O)CC(NC(=O)CNC(=O)c1ccc(N2CCCC2=O)cc1)c1ccccc1Cl (stereo not given),-2.9%,1.1%
CC(Sc1ccc2c(c1)OCCO2)C(=O)c1ccc(F)cc1 (stereo not given),44.8%[activator],51.6%[activator]
Cc1ccc(NC(=O)c2cc(-c3cccnc3)nc3c(C)cccc23)nc1,23.1%,0.0%
COc1cccc(-c2[nH]c3c(c2-c2c(-n4cccc4)n(C)c(=O)[nH]c2=O)c(=O)[nH]c(=O)n3C)c1,-10.3%,-6.6%
CCOC(=O)C1=C(C)Nc2nc(SCc3ccccc3C)nn2C1c1cccs1 (stereo not given),-4.5%,-0.9%
CCC(=O)N1CCc2cc(Br)cc(S(=O)(=O)N3CCCC(C(=O)Nc4cccc(Cl)c4C)C3)c21 (stereo not given),2.6%,-19.2%
NC(=O)COc1cccc(NC(=O)CCc2ncc(-c3ccccc3)o2)c1,2.0%,5.5%
CCc1ccc2oc(C(=O)Nc3sc4c(c3C(=O)NC)CCCC4)cc(=O)c2c1,-6.6%,-16.1%
Fc1ccc(Br)cc1CNc1ccccc1,-1.4%,10.9%
COc1cc(C(=O)Nc2ccc3oc(-c4ccccc4Cl)nc3c2)cc(OC)c1OC,?,-15.1%
COc1cccc(CNC(=O)C(=O)NCC(c2ccco2)S(=O)(=O)c2cccs2)c1 (stereo not given),-11.6%,-28.3%

# Record cards (already shown). Values in the order: 2A Renilla | StopGo FLuc
# COc1cccc(-c2[nH]c3c(c2-c2c(-n4cccc4)n(C)c(=O)[nH]c2=O)c(=O)[nH]c(=O)n3C)c1 is entered as -10.3% | -6.6%
# Clc1ccc(-c2nnn3c2nc(NCc2ccc4c(c2)OCO4)c2ccccc23)cc1 is entered as -9.0% | 76.9%[activator]
# COc1cccc(CNC(=O)C(=O)NCC(c2ccco2)S(=O)(=O)c2cccs2)c1 (stereo not given) is entered as -11.6% | -28.3%

# More compounds follow:
SMILES,2A Renilla,StopGo FLuc
COc1ccc(OC)c(NC(=O)CSc2nc3ccsc3c(=O)n2-c2ccccc2F)c1,0.4%,-5.2%
C=CCN(CC#CC1=CCCCC1)Cc1ccccc1,16.3%,18.9%
CCCNC(=O)C1CCC(Cn2c(=O)c3sccc3n(CC(=O)N3CCCC(C)C3)c2=O)CC1 (stereo not given),-8.4%,-4.8%
CC1CSc2ccc(S(=O)(=O)N3CCN(c4ccccc4F)CC3)cc2NC1=O (stereo not given),-2.9%,-7.7%
COc1ccccc1CCNC(=O)Cc1c(C)c2cc3c(C(C)(C)C)coc3c(C)c2oc1=O,-8.1%,-4.5%
Cc1ccc(NC(=O)c2cc(S(=O)(=O)N3CCCCC3)c[nH]2)cc1F,28.5%,3.4%
COc1ccc(OC)c(C(=O)COC(=O)c2cc(S(N)(=O)=O)ccc2Br)c1,28.7%,3.8%
CC1=C(C(=O)O)N2C(=O)[C@@H](N)[C@H]2SC1,-8.9%[23.8 µM],-20.1%[27 µM]
CC1C(=O)N(Cc2ncc(-c3ccc(F)cc3)o2)C(=O)N1c1ccccc1 (stereo not given),-2.6%,8.7%
COc1ccc(C)cc1NC(=O)CC(C)(C(=O)O)c1ccccc1 (stereo not given),-5.9%,-9.4%
COCCOC(=O)/C(C#N)=C/c1ccc(O)c(I)c1,-25.9%,20.3%
Cc1ccc2oc(=O)cc(CN3CCN(Cc4ccccc4)CC3)c2c1,-11.6%,-7.0%
O=C(NCCNCc1c[nH]c2ccccc12)c1ccc(F)cc1,-13.5%,-11.9%
CCCCn1c(=O)[nH]c(=O)c2c1nc(COC(=O)C1(c3ccc(Cl)cc3)CC1)n2CC,-5.2%,-3.0%
COc1ccccc1-c1nc(S(=O)(=O)c2ccc(Cl)cc2)c(N2CCCCCC2)o1,198.4%[activator],2.7%
COc1cccc(NC(=O)CN2C(=O)c3cccc4cccc2c34)c1,-18.1%,-13.0%
CCC(C)/C(C)=N/Nc1nc2ccccc2[nH]1 (stereo not given),5.1%,136.4%[activator]
COc1ccc(C(=O)Oc2ccc3c(=O)c(Oc4ccccc4Br)coc3c2)cc1,-11.9%,-5.3%
Cc1cccc(C)c1-n1nnnc1SCC(=O)N(C)c1ccccc1C(=O)NCc1ccco1,0.0%,2.3%
CC(C)Cc1ccc(C(C)NC(C)C(=O)NC(N)=O)cc1 (stereo not given),22.2%,24.7%
CCOC(=O)c1ccccc1NC(=O)CSc1nnc(CC)n2c1cc1occc12,94.0%[activator],1.9%
COc1ccc(C2=NN(C(=O)c3ccccc3)C(c3ccc(OC)c(OC)c3)C2)cc1OC (stereo not given),3.1%,17.0%
CCN(CC)CCCNc1oc(/C=C/c2ccc(OC)c(OC)c2)nc1C#N,0.0%,-6.9%
O=C(Nc1cccc2cccnc12)c1ccc(OC2CCCC2)cc1,-2.2%,106.9%[activator]
CC(NC(=O)c1nccnc1N)c1ccccc1Br (stereo not given),?,-31.5%

# (listing goes on)
SMILES,2A Renilla,StopGo FLuc
O=C(NCc1ccccc1Br)c1ccc(-n2cnc3cccnc32)cc1,61.6%[activator],16.1%
CC(Oc1ccccc1F)C(=O)N1CCC(c2nc3ccccc3o2)CC1 (stereo not given),-13.4%&11.4%,-13.9%&-12.0%
Cc1ccc(C)c(N2CCN(C3=C(c4ccccc4)C(=O)c4ccccc43)CC2)c1,-2.9%,-10.6%
Cc1ccc(S(=O)(=O)NCCc2nnc3ccc(SCC(=O)Nc4ccc(F)cc4F)nn23)cc1,4.5%,0.0%
CCc1cccc2c(C(=O)COC(=O)c3cc(S(=O)(=O)N4CCOCC4)ccc3F)c[nH]c12,11.3%,34.7%[activator]
CCOc1ccccc1C(=O)Nc1cccc2ccc(C)nc12,67.9%[activator],16.6%
COc1cccc(NC(=O)C2CCCN(c3ncnc4onc(C)c34)C2)c1 (stereo not given),-17.8%,-11.2%
CC(C)C(=O)N1CCN(C(=O)c2cc3ccccc3n2C)CC1,-12.1%,-4.3%
COc1ccc2c(C)cc(SCC(=O)NC(C)c3ccccc3)nc2c1 (stereo not given),4.4%,0.5%
CCc1ccc(NC(=O)CSc2c(C)cnc3c2c(=O)n(C)c(=O)n3C)cc1,-8.2%,-9.5%
O=C(Cc1ccc2ccccc2c1)Nc1nccs1,0.0%,0.0%
CC(=O)Nc1ccc(NC(=O)c2c(-c3ccccc3)noc2C)cc1,-8.0%,37.3%[activator]
O=C(Cc1c[nH]c2ccccc12)N1CCN(C(=O)NC2CCCC2)CC1,-13.8%,-4.6%
COc1ccc(Nc2nc(C(=O)OCC(=O)c3ccc(F)cc3)cs2)cc1,-10.4%,52.5%[activator]
COc1ccc(NC(=O)Cn2ncc3c([nH]c4ccccc43)c2=O)cc1Cl,-1.6%,-14.1%
COc1ccc(-c2nc(SCC(=O)N3CCC(C)CC3)n[nH]2)cc1,-9.7%,-7.9%
CS(=O)Cc1cccc(C(=O)N2CCC(n3cccc3)CC2)c1 (stereo not given),13.2%,-1.1%
CC(C)(C)C(=O)Oc1ccc2c(c1)O/C(=C\c1cccnc1)C2=O,4.4%,14.6%
Cc1ccc(F)cc1NC(=O)CCc1c(C)nn(-c2ccc(N3CCCC3)nn2)c1C,-5.9%,-12.5%
COc1cccc(C(=O)Nc2cccc(OCc3cc(=O)n4c5c(sc4n3)CCCC5)c2)c1,-6.6%,112.1%[activator]
CCOc1ccc(NC(=O)N2CCN(C(=O)c3nsc4ccccc34)CC2)cc1,-15.5%,-16.5%
COc1ccc(Cl)cc1NC(=O)Cn1ccn(Cc2ccc(C)cc2)c(=O)c1=O,-15.3%,0.0%
COc1cc(OC)c(NC(=O)C2CCCN(c3ccc4nnc(C)n4n3)C2)cc1Cl (stereo not given),1.3%,9.4%
CC(C)c1nn2c(=O)cc(CN3CCN(c4ncccn4)CC3)nc2s1,-17.2%,0.4%
Cc1ccc(OCC(=O)Nc2ccc(Cl)cc2C(=O)c2ccccc2)cc1C,-10.4%,-0.7%
Cn1c(SCC(=O)N2CCCc3ccccc32)ncc(C(=O)Nc2ccc(F)cc2)c1=O,10.3%,-17.5%
CCOc1ccc(S(=O)(=O)Nc2cccc(OC)c2)c2cccnc12,245.6%[activator],3.1%
Cc1ccccc1NC(=O)C1CCN(S(=O)(=O)c2ccccc2)CC1,-11.3%,-12.0%
Cc1cccc(N2CCN(C(=O)C3CCN(C(=O)c4cc5sccc5n4C)CC3)CC2C)c1 (stereo not given),-6.9%,-8.3%

# Screens deposited in PubChem BioAssay by National Center for Advancing Translational Sciences (NCATS).
